# Bioassay records (PubChem)
# AF4-AF9 inh – blocks AF4 peptide binding to human AF9; AlphaScreen, biotin-AF4 peptide binding to FLAG-AF9; P42568; 350,000 compounds, 0.47% hits; inhibition, % at 10 µM;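 active = every replicate reaching a set inhibition limit, whatever the replicate mean, cut at about 25% in these data; inconclusive = mean inhibition reaches that limit but some replicates miss it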;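 also: 0% = plate neutral control median and 100% = total signal loss; the record names both 10 and 1 µM as test concentration; the first replicate is given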
# Vif A3G – inhibitors of Vif binding to APOBEC3G peptide, primary screen, biochemical, TR-FRET, GST-Vif 1-94, biotin-A3G peptide, dose response retest (AID 1117319). TR-FRET GST-Vif / biotin-A3G peptide binding; higher % means a stronger effect; test concentration not given here; strong numbers were not always called active. inhibition, %; hits with a dose series show IC50 in µM. 260,000 compounds, 0.57% hits;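 active = above the screen mean plus three standard deviations and confirmed in dose response; inconclusive = results disagree or hit not tested in dose response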;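 also: Vif residues 1-94 fused to GST binding biotinylated APOBEC3G peptide 110-148; 0% = full assay without inhibitor and 100% = GST in place of GST-Vif; retest series ran down from 100 µM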
# Calb FLC – affects C. albicans growth with fluconazole. C. albicans CaCi-2 (fluconazole-resistant clinical isolate) + fluconazole, Alamar Blue growth, 48 h. growth inhibition, % (no concentration beside the values). 300,000 compounds, 0.57% hits. AID 1979;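 active = most replicates above 75%; inconclusive = exactly half above 75%; inactive = most below 75%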;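 also: all wells also contain fluconazole at 8 µg/ml as a sub-toxic cotreatment; 0% = median of DMSO wells and 100% = median of geldanamycin control wells; wells of about 8 µL received 7.5 nL stock; the first replicate is given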
# Beta apoptosis – beta cell apoptosis inhibition; INS-1E cytokine-induced death, ATP luminescence, 48 h; percent of positive-control rescue, neutral wells zero; protection from apoptosis, % (no concentration beside the values); 300,000 compounds, 0.8% hits;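 active = all replicates at 75% or more, or half of them and the mean; inconclusive = half reach 75% but not the mean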;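 also: 0% = cytokine-treated negative control wells and 100% = positive control rescue; higher means more ATP so stronger rescue from cytokine killing; wells of about 40 µL received 100 nL stock; the first replicate is given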
# RanGTP-Imp inh – disruptors of Ran-importin-beta complex formation – biochemical, FRET, CFP-Ran, YFP-importin-beta, homogeneous, primary screen; 300,000 compounds, 1.1% hits; AID 2216; inhibition, % (concentration not given with the values); cell-free CFP-Ran/YFP-importin-beta FRET ratio;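 active = most replicates above 15%; inconclusive = exactly half above 15%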;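 also: 0% = DMSO wells and 100% = Ran loaded with GDP instead of GTP; wells of about 40 µL received 100 nL stock; the first replicate is given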
# LANA-H2B inh – blocks KSHV LANA binding to histone H2A/H2B | Q9QR71 | cell-free LANA-H2A/H2B peptide, fluorescence polarization | 320,000 compounds, 0.6% hits | inhibition, % (test concentration not listed); in the data active = inhibition mostly above about 10%, no sharp cut-off; inactive = mostly below about 6.7%;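 also: stock transfer was 7.5 nL into about 10 µL; 0% = median of vehicle wells and 100% = median of positive control wells; one replicate is shown; the record names a cut of 25% in any replicate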
# Target sequence (Q9QR71 whole entry, looked up): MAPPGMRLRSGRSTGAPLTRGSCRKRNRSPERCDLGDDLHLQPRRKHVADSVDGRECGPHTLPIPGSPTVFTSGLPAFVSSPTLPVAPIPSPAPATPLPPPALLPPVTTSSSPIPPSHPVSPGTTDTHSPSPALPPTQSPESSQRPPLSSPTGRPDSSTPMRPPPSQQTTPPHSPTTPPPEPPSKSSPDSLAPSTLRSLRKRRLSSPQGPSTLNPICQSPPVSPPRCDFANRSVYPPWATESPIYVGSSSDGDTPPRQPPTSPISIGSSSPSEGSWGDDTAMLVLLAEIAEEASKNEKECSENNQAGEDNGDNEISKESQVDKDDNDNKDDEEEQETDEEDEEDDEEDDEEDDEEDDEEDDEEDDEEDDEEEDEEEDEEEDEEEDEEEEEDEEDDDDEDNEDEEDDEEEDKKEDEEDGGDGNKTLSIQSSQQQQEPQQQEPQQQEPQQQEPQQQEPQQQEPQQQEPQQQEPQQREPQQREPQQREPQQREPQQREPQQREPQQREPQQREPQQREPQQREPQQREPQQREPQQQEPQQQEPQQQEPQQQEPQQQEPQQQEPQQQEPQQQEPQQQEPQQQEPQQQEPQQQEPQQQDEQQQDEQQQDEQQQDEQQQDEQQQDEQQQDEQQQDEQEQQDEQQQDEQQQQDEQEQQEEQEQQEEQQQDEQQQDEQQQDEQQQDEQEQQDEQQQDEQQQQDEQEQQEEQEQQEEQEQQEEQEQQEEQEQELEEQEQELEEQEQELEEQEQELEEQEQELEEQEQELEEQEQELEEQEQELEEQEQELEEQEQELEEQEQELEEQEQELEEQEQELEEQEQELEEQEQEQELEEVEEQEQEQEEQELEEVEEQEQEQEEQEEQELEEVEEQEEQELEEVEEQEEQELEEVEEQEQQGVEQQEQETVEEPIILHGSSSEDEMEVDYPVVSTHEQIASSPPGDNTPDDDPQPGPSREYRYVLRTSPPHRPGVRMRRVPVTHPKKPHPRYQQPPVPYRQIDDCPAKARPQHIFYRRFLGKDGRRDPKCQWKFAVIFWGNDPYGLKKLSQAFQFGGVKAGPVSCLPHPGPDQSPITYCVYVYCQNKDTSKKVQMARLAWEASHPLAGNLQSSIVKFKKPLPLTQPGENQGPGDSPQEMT
# Bfl-1 A1 inh – inhibitors of the anti-apoptotic protein A1, read as caspase activation; caspase activation, % (concentration not given with the values); MEF A1-2A-BIM cells, Caspase-Glo 3/7 luminescence, 3 h; percent of clofoctol response, vehicle zero; 330,000 compounds, 0.066% hits; AID 2462;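 active = over half of replicate activation scores above 10%, or exactly half above 10 with the replicate mean above 10; inconclusive = replicate mean below 10 yet half the replicates above 10; inactive = over half of replicates below 10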;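 also: wells of about 30 µL received 50 nL stock; many hits fall short of the cut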
# T cruzi repl – T. cruzi replication inhibition; T. cruzi beta-gal in NIH3T3, luminescence, 90 h; inhibition, % (test concentration not listed); 300,000 compounds, 1.4% hits; AID 1885;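 active = mean inhibition across valid replicates above about 55%, limit read from the data; inconclusive = mean below that limit but half or more replicates reach it; inactive = mean below it, under half of replicates reach it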;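 also: signal also drops with host cell toxicity which is not excluded here; 0% = plate median of DMSO wells and 100% = zero luminescence signal; higher percent means less beta-gal luminescence so fewer parasites; stock transfer was 50 nL into about 50 µL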
# An asterisk follows results filed as active; ? = inconclusive; / = not tested or not shown; & = joins results of further samples.
Compound	Bfl-1 A1 inh	Calb FLC	AF4-AF9 inh	RanGTP-Imp inh	T cruzi repl	LANA-H2B inh	Beta apoptosis	Vif A3G
CCCc1nc(SCC(=O)N2CCCCCC2)c2c(=O)n(C)c(=O)n(C)c2n1	-0.9	-11	/	-1.9	25	2.9	10	-2%
O=C(c1ccco1)N1CCN(S(=O)(=O)N2CCOCC2)CC1	2.0	-1	/	5.5	-1	-1.5	-6	2%
CSc1cccc(NC(=O)c2ccc(NC3=NC4CS(=O)(=O)CC4S3)cc2)c1 (stereo not drawn)	/	3	8.6	?	-3	-2.2	2	/
COc1ccccc1CNC(=O)C(=O)NCC1OCCCN1S(=O)(=O)c1cccs1 (stereo not drawn)	0.9	1	-1.0	-1.2	7	0.2	0	/
CC(=O)N1CCC2(CC1)C(C#N)=C(N)Oc1c2sc2nc(C)cc(C)c12	-0.2	5	/	?	6	0.1	-2	0%
CCn1cc(C(=O)NCc2ccccn2)c(=O)c2cc(S(=O)(=O)N3CCCCC3)ccc21	/	-9	/	-0.7	8	/	/	8%
CCC(C)[C@H](NC(=O)NCc1cccs1)C(=O)O (stereo partly drawn)	0.1	-2	/	-1.7	-1	2.6	-2	?
N=c1c(C(=O)NC2CCCCC2)cc2c(=O)n3ccccc3nc2n1Cc1ccccc1	0.4	-23	-1.1	180*	20	1.8	11	/
CNC(=O)N(O)C1N(/N=C/c2ccc(C)cc2)C(=S)SC1(C)C (stereo not drawn)	0.2	3	2.7	-3.2	-3	-2.4	4	-4%
CCCSc1cc(N2CCOCC2)nc(-c2ccccc2Cl)n1	0.2	16	/	3.0	19	-2.0	0	-3%
O=C1/C(=C/c2cccnc2)SC(=S)N1c1ccccc1	-0.5	/	-6.8	/	-46	3.6	-2	8%
N#CCOc1ccccc1P(=O)(c1ccccc1)c1ccccc1	1.2	-1	-1.4	2.9	-17	-0.5	-1	/
CCCCn1c(N)c(N(CCOC)C(=O)c2cc(-c3ccncc3)nc3ccccc23)c(=O)[nH]c1=O	-0.4	3	1.3	2.5	0	-3.7	/	-3%
O=C(CSc1nnc(NC(=O)c2ccccc2[N+](=O)[O-])s1)NCC1CCCO1 (stereo not drawn)	0.1	7	-0.3	5.3	-15	1.4	3	3%
Cc1[nH]n(-c2nc(-c3ccccc3)cc(=O)[nH]2)c(=O)c1CCO	0.4	-1	0.4	?	-20	-9.4	3	13%
COc1ccc(C)cc1NC(=O)c1ccc2c(=O)n3c(nc2c1)CCCCC3	0.5	9	-9.0	-1.3	0	3.5	-4	/
CCc1nnc(SCC(=O)Nc2ccc3c(c2)OCO3)n1CC	-0.2	-2	1.2	-1.7	-6	5.7	4	/
CCCCSC(=O)Nc1ccccc1	-8.3	-4	/	-1.4	-10	-0.9	-10	3%
O=C(NCCc1ccccc1)C(c1cccs1)N(C(=O)CCl)c1ccc(Cl)cc1 (stereo not drawn)	3.1	2	-12	5.3	26	-1.9	18	?
C#Cc1ccc([C@@H]2C=C(C(=O)NC3CC3)O[C@H](OCC)[C@H]2CCCO)cc1	-0.8	4	3.3	-4.1	-5	0.7	4	-1%
O=C(N=Nc1c(O)[nH]c2ccc(Br)cc12)c1ccccc1-n1cccc1	0.1	?	-72	0.6	/	-4.6	34	11%
Cc1cc(S(=O)(=O)N(Cc2ccc(F)cc2)CC2CCCO2)ccc1-n1cnnn1 (stereo not drawn)	0.5	10	0.3	2.2	-4	4.2	0	?
O=C(NCC(=O)N(c1ccccc1)C(C(=O)NC1CCCCC1)c1cccnc1)c1cccs1 (stereo not drawn)	0.2	7	-2.5	8.1	-17	2.9	-7	-7%
O=C(OCC(=O)N1CCCC1)c1ccco1	-0.9	-2	/	3.3	16	-14	-4	3%
COc1ccccc1NS(=O)(=O)c1cccc(C(=O)N/N=C(\C)c2ccc(-n3ccnc3)cc2)c1	-1.4	-5	/	2.3	40	6.5	-2	-12%
C=CCNC(=S)Nc1ccc2cn[nH]c2c1	0.6	-5	-5.2	?	?	-9.3	-6	-5%
CCOC(=O)c1c(C)[nH]c(C(=O)OCC(=O)Nc2cc(C)nn2-c2ccccc2)c1C	0.8	8	0.0	-0.9	-8	-5.2	-2	-4%
COC(=O)C1=C(C)NC(=O)NC1c1cc(Cl)ccc1OC (stereo not drawn)	0.0	4	/	-0.1	0	5.1	-10	15%
O=C(NCc1ccccc1)C1CCCN1S(=O)(=O)c1ccc(F)cc1 (stereo not drawn)	0.9	12	-2.8	3.1	-4	-4.3	-2	-2%
CCOC(=O)c1c(NC(=O)Cc2cccs2)sc(C)c1C	0.9	-3	1.2	4.4	29	-3.0	/	8%
CCN1CCN(Cc2ccc(NC(=O)c3ccc(C)c(NC(=O)C[C@@H]4NC(=O)[C@H](Cc5ccccc5)NC4=O)c3)cc2C(F)(F)F)CC1	1.3	-9	5.9&-3.1	-3.1	5	0.7	-10	0%&-2%
Cc1cccc(NC(=O)CN(C)S(=O)(=O)c2cccs2)c1	-0.9	33	-36	-1.7	-10	2.5	-9	6%
COc1cccc(OCC(O)CN2CCN(CCO)CC2)c1 (stereo not drawn)	-1.0	5	/	4.2	0	4.6	0	-4%
CCCC(=O)N1CC(=O)Nc2ccc(C)cc2C1c1ccc(F)cc1 (stereo not drawn)	-0.4	6	0.7	-5.7	-12	-3.3	0	/
CCCOc1ccc(Oc2nc(-c3ccncc3)nc3ccccc23)cc1	-0.4	-10	3.6	0.0	36	-1.5	/	/
CO/C([O-])=N/c1c[n+](-c2ccc(C)cc2)no1	0.4	-24	/	-0.9	-11	0.9	8	4%
CN(C)CCN(Cc1cc2cc3c(cc2[nH]c1=O)OCCO3)C(=S)NCC1CCCO1 (stereo not drawn)	-0.5	31	0.2	-2.4	-12	-0.3	-11	/
O=C(Nc1cccc(F)c1)Nc1c[nH]c(=O)[nH]c1=O	0.6	5	-2.1	2.4	-1	-5.7	1	-3%
COc1ccc(CN2CCNC(=O)C2CC(=O)NCCSc2nccn2C)c(OC)c1 (stereo not drawn)	-0.1	-20	1.5	0.2	1	-2.0	0	/
O=C(O)c1ccc(CN(Cc2ccccc2)S(=O)(=O)c2ccc(Cl)cc2)cc1	-0.2	28	0.2	3.9	-15	0.5	2	/
Cc1ccc(C(=O)NNC(=O)CCN2C(=O)C3CCCCC3C2=O)cc1 (stereo not drawn)	0.3	-3	-27	-1.6	-12	-0.8	-1	0%
COc1cc2cc(CN(Cc3cccs3)C(=S)Nc3cccc(C)c3)c(=O)[nH]c2cc1OC	-0.4	10	/	2.6	35	-0.8	/	?
COC(=O)C1=C(C)NC(C)=C(C(=O)OC)C1c1ccc(N(C)C)cc1	0.3	-16	/	0.4	7	0.4	11	16%
Cc1[nH]c(C)c(S(=O)(=O)Nc2cccc(Cl)c2C)c1C(=O)N1CCCCC1	-0.1	3	4.1	0.5	-4	0.6	-14	/
CCc1cc2cc3c(cc2nc1SCC(=O)Nc1nnc(C)s1)OCCO3	0.9	14	9.2	-2.5	4	-1.4	19	-7%
COc1ccc(CCNc2nc3ccccc3n3nnnc23)cc1OC	0.9	-6	0.4	28*	-7	3.5	-2	9%
CCC(c1nnnn1Cc1ccco1)N(CCc1ccccc1)Cc1cc2ccc(OC)cc2[nH]c1=O (stereo not drawn)	0.0	-5	/	3.1	21	1.1	18	?
COC(=O)CSc1nnc(CSc2nc(C)cc(C)n2)n1Cc1ccco1	0.7	-6	/	-3.1	19	-3.1	0	13%
CC(NC(=O)c1ccccc1)c1nnc(SCC(=O)NC2CCCC2)n1C (stereo not drawn)	0.6	-10	1.1	4.1	-13	-7.5	0	6%
Cc1ccc(S(=O)(=O)N(C)C(=O)NC(=O)NS(=O)(=O)c2ccccc2)cc1	0.3	-2	-1.5	3.7	2	-1.6	-2	-8%
O=c1c2[nH]c3ccccc3c2ncn1CCC1=CCCCC1	-2.4	8	-2.5	0.9	10	-4.4	-3	-1%
CCCCN(CC)Cc1ccc(CNC(=S)Nc2c(C)cc(C)cc2C)o1	0.3	1	7.6	-1.1	13	1.2	-3	4%
CCCCN(CCCC)C(=O)C1(P(=O)(c2ccccc2)c2ccccc2)CCC1	0.8	-3	3.4	?	23	-4.5	/	-4%
O=C1Nc2ccccc2C(O)(C(=O)NCc2ccc3c(c2)OCO3)N1c1ccccc1 (stereo not drawn)	0.4	-6	/	0.7	-3	4.5	-2	?
CC1(C)CC(=O)C(C=NCCCN2CCOCC2)=C(O)C1	0.4	-4	/	4.9	3	4.0	-1	-5%
CN1CCN(S(=O)(=O)c2ccc(Oc3ccc(F)c(Cl)c3)nc2)CC1	-0.2	-1	2.1	5.3	-9	6.2	-5	-6%

# The results go on.
Compound	Bfl-1 A1 inh	Calb FLC	AF4-AF9 inh	RanGTP-Imp inh	T cruzi repl	LANA-H2B inh	Beta apoptosis	Vif A3G
CCN1CCN(C(c2cc3cc4c(cc3[nH]c2=O)OCO4)c2nnnn2C(C)(C)CC)CC1 (stereo not drawn)	-0.7	1	/	2.9	-4	6.4	/	20%
c1ccc(-n2ncc3c2ncn2c(C4CCCCC4)nnc32)cc1	/	-8	/	2.3	5	/	/	2%
O=C(/C=C/c1ccccc1)N1CCN(CC(O)COc2ccccc2)CC1 (stereo not drawn)	0.3	0	/	-0.2	-10	-1.9	0	11%
COc1cccc(/C=c2/s/c(=C(\C#N)C(=O)N3CCOCC3)n(-c3ccccc3)c2=O)c1	0.6	5	/	7.1	2	-3.8	-9	4%
COc1cc(C(=O)NCC(=O)N/N=C(C)\C=C\c2ccccc2)cc(OC)c1OC	0.1	5	0.0	-2.3	-4	4.3	-1	4%
COc1cc(C(=O)NC2=NCCS2)cc(OC)c1OC	0.6	-3	/	4.2	-7	-0.7	-5	29%
Cn1c(NC(=O)c2cccs2)cc(=O)n(C)c1=O	0.6	5	-4.0	?	-1	2.9	-3	71%
O=C(C[n+]1cc(-c2ccc(F)cc2)n2c1CCC2)c1cccs1	0.4	-1	-1.2	-0.1	-18	2.7	/	/
CCCC(C)C(=O)OCC(=O)NCc1ccc(OC)c(OC)c1 (stereo not drawn)	1.5	11	-2.7	-0.1	-7	-2.8	-2	7%
COc1ccccc1CNc1nc(C)c(C(=O)N(C)C)s1	/	4	?	-4.8	-1	/	/	/
O=C(Nc1ccccc1)OCCNC(=O)c1ccccc1	1.0	13	/	0.0	1	1.4	/	3%
Cc1ccc2nc(C(C)O)[nH]c2c1 (stereo not drawn)	0.7	22	/	?	1	4.3	-5	-7%
COc1ccc(NC(=O)CCCC2CCCCC2)cc1S(=O)(=O)N1CCCCC1	0.9	2	-4.5	0.0	-10	0.7	/	28%
Cc1cnc(NC(=O)COc2ccccc2)s1	-4.0	-7	/	-2.1	-8	-5.8	/	-1%
